Compound activity: PubChem, several laboratories
Arbovirus inh – arbovirus infection inhibition | arbovirus infection cell-based antiviral screen | inhibition, % at 10 µM | 200,000 compounds, 0.37% hits;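 active means inhibition from about 30%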;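 further: bluetongue infection of BSR cells; cell survival read as ATP light after 72 h; 0% = infected wells without compound and 100% = uninfected wells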
YopH inh – YopH (Yersinia) phosphatase inhibition. 140,000 compounds, 0.16% hits. inhibition, %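 (about 10 µM by stock and volumes)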. fluorescence Ex485/Em525;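 active means inhibition of 50% or more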;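 further: controls were vehicle for no effect and minimum signal wells for full effect; inactives centre near -20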
RecA splice inh – Mtb RecA intein splicing inhibition; P9WHJ3; cell-free RecA intein splicing, fluorescence; inhibition, %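 (about 9 µM by stock and volumes)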; 290,000 compounds, 0.75% hits; in the data active means inhibition above about 30%; inconclusive means no clear call, values can overlap the other calls;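 further: 0% = vehicle wells and 100% = reference inhibitor control wells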
Target sequence (P9WHJ3 whole entry, looked up, canonical isoform): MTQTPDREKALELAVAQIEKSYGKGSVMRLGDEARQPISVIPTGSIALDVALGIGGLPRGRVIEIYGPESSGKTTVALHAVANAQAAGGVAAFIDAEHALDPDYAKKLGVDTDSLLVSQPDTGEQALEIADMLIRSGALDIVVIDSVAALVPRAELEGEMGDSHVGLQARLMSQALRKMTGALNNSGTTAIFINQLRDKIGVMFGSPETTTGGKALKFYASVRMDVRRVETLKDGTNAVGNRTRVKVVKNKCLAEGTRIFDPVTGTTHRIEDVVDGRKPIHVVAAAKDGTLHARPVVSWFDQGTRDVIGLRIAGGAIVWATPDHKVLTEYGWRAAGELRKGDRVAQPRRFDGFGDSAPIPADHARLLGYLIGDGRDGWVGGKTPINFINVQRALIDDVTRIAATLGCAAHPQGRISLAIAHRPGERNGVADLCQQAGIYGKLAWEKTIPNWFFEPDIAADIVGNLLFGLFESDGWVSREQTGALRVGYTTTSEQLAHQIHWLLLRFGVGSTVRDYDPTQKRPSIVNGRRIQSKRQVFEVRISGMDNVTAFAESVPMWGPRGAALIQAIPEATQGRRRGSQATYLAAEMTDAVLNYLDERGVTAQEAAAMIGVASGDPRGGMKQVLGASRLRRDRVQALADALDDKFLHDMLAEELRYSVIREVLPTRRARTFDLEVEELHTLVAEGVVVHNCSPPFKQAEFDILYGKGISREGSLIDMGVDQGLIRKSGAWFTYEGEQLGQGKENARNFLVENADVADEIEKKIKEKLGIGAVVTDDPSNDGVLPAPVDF
Mtb H37Rv – M. tuberculosis H37Rv growth inhibitors, H37Rv strain (AID 1626). M. tuberculosis H37Rv growth inhibition; higher % means a stronger effect. inhibition, % at 10 µM; hits with a dose series show IC50 in µM. 220,000 compounds, 0.95% hits;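 active means confirmed in a dose series; inconclusive means inhibition above 80% but not taken into the dose series; inactive means below 80% or under 30% at every dose of the series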;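 further: bacteria incubated seven days before Alamar blue readout; 0% = bacteria only wells and 100% = bacteria with antibiotic wells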
Mtb betalactam – beta-lactam sensitization of Mtb H37Rv. M. tuberculosis H37Rv growth with meropenem, percent inhibition; hits of this screen are not shown here. inhibition, % at 25 µM. 330,000 compounds, 0.27% hits;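 active means about 74% or more and at least 40 points above the plate without the antibiotic, then above 30% in a dose series; inconclusive means first-round hits that could not be retested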;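 further: growth measured after seven days incubation then overnight dye step; 0% = bacteria only wells and 100% = bacteria with antibiotic; twin plates without the antibiotic show which effects depend on it; some results filed as inactive read as strong as hits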
Arbovirus inh repeat – recorded beside Arbovirus inh, whose call it bears; inhibition, %; measured here: 10K subset replicate screen; many hits read low in the repeat;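 first of two repeat runs on a subset; 0% = infected and 100% = uninfected wells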
The depositor's hits bear a star; ? = inconclusive; . = not tested or not shown. Not all compounds are listed; rates above refer to the full screens.

SMILES | Arbovirus inh | YopH inh | RecA splice inh | Mtb H37Rv | Mtb betalactam | others
CC1(C)C(=O)NC(=O)N1Cc1ccccc1 | . | . | 0.5 | . | -1
O=C(Nc1scc(-c2ccc(Br)cc2)c1C(=O)O)c1ccccc1F | . | . | 2.1 | . | 0
NC(=O)CSc1cn(Cc2cccc(F)c2)c2ccccc12 | 10 | . | 0.4 | 7% | 7
CC(C)(CCl)C(=O)Nc1ccnc(-c2ccncc2)n1 | 3 | . | . | -2% | 1
CN1C=CC=C/C1=C1\SC(=S)N(CC(=O)O)C1=O | -3 | . | -3.5 | -3% | -17
COc1cccc(NC(=O)c2ccc(C(=O)c3ccccc3)o2)c1 | -4 | . | -0.8 | 5% | 2
CCCCCCCCCC(=O)N1CCN(c2cc3c(cc2F)c(=O)c(C(=O)O)cn3CC)CC1 | . | . | 0.5 | . | 6
COc1cc(OC)cc(C(=O)NCC(=O)OCC(=O)Nc2cc(S(C)(=O)=O)ccc2Cl)c1 | . | . | 0.9 | -15% | 8
Cc1ccccc1CC(=O)Nc1ccc(S(=O)(=O)N2CCOCC2)cc1 | . | . | 1.5 | . | -11
Cc1cc(C)nc(SCc2cc(=O)c(OC(=O)c3cc([N+](=O)[O-])ccc3Cl)co2)n1 | -4 | -23 | -0.8 | -3% | 4
O=C(COC(=O)C1CCCC1)Nc1ncc(Cl)cc1Cl | . | . | 3.0 | . | -8
CN(C)/C=N/c1sc2c(c1C#N)CC(C)(C)NC2(C)C | 3 | -22 | -1.2 | 6% | 10
COc1ccc(/C=C/C(=O)c2ccc(NS(=O)(=O)c3ccc(C)cc3)cc2)cc1O | -35 | 1 | 8.5 | 10% | 4
Cc1ccccc1OCC(=O)N/N=C/C=C/c1ccccc1 | -9 | . | -0.3 | -2% | 0
CC1CC(C)CN(C(=O)CCNC(=O)Cn2ccc3ccccc3c2=O)C1 (centres undefined) | . | . | -0.5 | . | -3
CCCC12CN(C(=O)c3ccc([N+](=O)[O-])cc3)CC(C)(CN(C(=O)c3ccc([N+](=O)[O-])cc3)C1)C2=O | . | . | -1.1 | 0% | -4
Cn1c(CNC(=O)CNC(=O)c2ccc(F)cc2)cc(=O)n(C)c1=O | . | . | -1.3 | . | -4
Cc1cc(C)n(C(=O)Cn2nc([N+](=O)[O-])c(Br)c2C)n1 | 9 | . | 2.1 | 1% | -11
CC(=O)c1cccc(NC(=O)CCNC(=O)c2cccc(C)c2)c1 | . | . | 1.4 | . | 1
COc1ccc(Nc2ncnc3sc(-c4ccccc4)cc23)cc1 | -10 | -20 | -0.5 | -5% | 25
Cc1cc(S(=O)(=O)Nc2ccc(C(=O)N3CCN(c4ccccc4O)CC3)cc2)ccc1F | . | . | 4.0 | . | 2
CN(c1ccccc1)c1nc(N)c([N+](=O)[O-])c(N2CCCC2)n1 | . | . | 0.3 | . | ?
O=C(Nc1cccc(NC(=O)c2cccs2)c1)c1ccc(Br)o1 | . | . | 2.8 | . | ?
O=C(CN1C(=O)/C(=C/c2ccccc2)SC1=S)NNC(=O)c1ccccc1O | 9 | . | -3.0 | 0% | -3
CCOC(=O)c1c(C)[nH]c(C)c1C(=O)CSc1nnc(-c2cc(OC)c(OC)c(OC)c2)o1 | 16 | -37 | 3.6 | -3% | 1
CCN(CC)c1ccc(N2C(=O)CSC2=S)cc1 | -5 | . | 24 | 2% | 6
COc1ccc(N(CC(=O)NCCC2=CCCCC2)S(=O)(=O)c2ccc(C)cc2)cc1OC | -10 | . | 0.3 | 1% | 0
CCOC(=O)/C(C(=O)Nc1ccc(Br)cc1)=C1/NC(C)(C)Cc2ccccc21 | -10 | -22 | -0.4 | 9% | 3
CCC(=O)Nc1c(C(=O)Nc2ccc3c(c2)OCCO3)oc2ccccc12 | -6 | . | 2.0 | 13% | 56
COC(=O)/C=C/S(=O)(=O)c1ccc(NC(C)=O)cc1 | -4 | -11 | -3.0 | -9% | 2 | Arbovirus inh repeat=-16
C=Cc1ccc(Cn2c(C(=O)O)c(C=O)c3ccccc32)cc1 | 6 | . | 3.1 | -4% | 3
CCn1cc(-c2ccccc2)c(C(=O)O)c1-c1ccc(OC)cc1 | . | . | -1.3 | . | -4
NS(=O)(=O)c1ccc(NC2=CC(c3ccc(F)cc3)N(c3ccc(S(N)(=O)=O)cc3)C2=O)cc1 (centres undefined) | . | . | -5.4 | 14% | -4
CCNC(=O)Cn1cnc2c1c(=O)n(C)c(=O)n2C | 4 | 4 | 0.1 | -4% | -7
CC(C)C(NC(=O)c1ccccc1F)C(=O)Nc1ccc2c(c1)OCO2 (centres undefined) | 1 | . | -4.1 | 2% | -3
O=C(Nc1nnc(SCc2ccccc2)s1)c1cccs1 | 4 | -10 | -3.0 | -5% | 46
COc1ccc(N/C=C\C(=O)c2ccc(C)cc2)cc1OC | -3 | . | 1.3 | 6% | -5
Oc1ccc(Br)cc1/C=N/NC(=S)NCCc1ccccc1 | . | . | 11 | . | -1
S=C(NCCc1ccccc1)NC1CC1 | 0 | -37 | 1.0 | 1% | 3
COc1ccccc1NC(=O)c1ccc(-n2ccnc2)c([N+](=O)[O-])c1 | . | . | -1.1 | . | -4
NC(=O)C1CCN(C(=O)NC(=O)c2ccccc2)CC1 | . | . | 0.8 | . | 4
CC1CC(C)CN(C(=O)c2cc3c(s2)CCC3)C1 (centres undefined) | 8 | -7 | 4.1 | 0% | 37
O=C(Nc1cccc2ccccc12)OC1C=CS(=O)(=O)C1 (centres undefined) | 11 | 0 | -0.3 | 7% | -1
C/C(CCc1ccccc1)=N\NC(=O)C1C2CCCCC21 (centres undefined) | 5 | . | -1.9 | 4% | 3
CC(C)[C@H](NC(=O)[C@@H]1CSC2c3ccccc3C(=O)N21)C(=O)NC1CCCC1 (some centres undefined) | . | . | -2.4 | . | 1
CCCCn1c(CNC(=O)C23CC4CC(CC(C4)C2)C3)nnc1SC(C)CC (centres undefined) | -8 | -17 | 4.4 | 13% | 5
COCCCNC(=O)/C(C#N)=C/c1c(N2CCCCCC2)nc2ccccn2c1=O | . | . | -4.1 | . | -9
COc1cc(C2CC(=O)OC3=C2C(=O)CC(C)(C)C3)cc(OC)c1OC (centres undefined) | -1 | . | 0.3 | -3% | -11
Cc1ccc(C)c(S(=O)(=O)NCc2ccc(C(=O)NCc3ccccn3)cc2)c1 | 4 | -10 | -2.8 | 2% | 2
CCOC(=O)CSc1ccc2nnc(CCNS(=O)(=O)c3ccc(C)cc3)n2n1 | 1 | . | 0.3 | 4% | -4
O=C1NC(=O)N(c2cccc(Br)c2)C(=O)/C1=C/c1ccsc1 | -2 | . | 4.9 | -7% | -8
CCc1nn(CC(=O)NCCc2ccc(S(N)(=O)=O)cc2)c(=O)c2cc3sccc3n12 | . | . | -4.5 | . | 3
O=C(COc1ccccc1)OCc1cc2ccccc2[nH]c1=O | 1 | -9 | 2.0 | -7% | 17
Cc1cc(C)c2[nH]c(=O)c(CN(Cc3nnnn3C3CCCC3)C3CCCCC3)cc2c1 | 4 | -27 | -1.1 | 1% | .
CC(C)Nc1nc(SCC(N)=O)nc(N2CCOCC2)n1 | 6 | -23 | -0.2 | -3% | -4
O=C(Cc1ccc(F)cc1)NCCc1ccccc1 | 5 | -4 | 8.2 | -1% | -2
Cc1cccc(C)c1C(=O)N[C@@H](Cc1ccccc1)C(=O)O | 5 | . | -1.2 | -5% | 5
O=C(COC(=O)C1CC2CCCC(C1)C2=O)NC(=O)c1ccc(OC(F)F)cc1 (centres undefined) | . | . | -4.7 | . | -1
COc1ccc(-c2csc(NC(=O)c3ccc(S(=O)(=O)N4CCc5ccccc5C4)cc3)n2)c(OC)c1 | 18 | -34 | -6.5 | -5% | 1
Cc1occc1C(=O)Nc1ccc(S(N)(=O)=O)cc1 | 4 | . | 2.3 | -7% | -3
Remaining list, next part:
SMILES | Arbovirus inh | YopH inh | RecA splice inh | Mtb H37Rv | Mtb betalactam | others
O=C(CN1CCN(c2ccccc2)CC1)c1ccc2cc[nH]c2c1 | 8 | -46 | 1.9 | 3% | 6
CN(C)/C=C1\C(=O)N(c2ccc(F)cc2F)C(c2cccnc2)S1(=O)=O (centres undefined) | . | . | 2.4 | -15% | 3
COC(=O)CNC(=O)c1ccccc1[N+](=O)[O-] | . | -20 | -1.4 | -8% | 1
COc1ccccc1N=Nc1c(C)noc1C | . | . | -0.1 | -4% | 0
Cc1ccccc1OCC(=O)NCCNC(=O)c1cccnc1 | . | . | -4.1 | . | -5
CC(C)NC(=O)c1ccc(N(Cc2ccccc2)S(C)(=O)=O)cc1 | . | . | -1.8 | . | -5
CCC(C)(C)NC(=O)C(c1ccc(OC)cc1)N(C(=O)CCC(=O)Nc1cc(C)on1)c1cccc(OC)c1 (centres undefined) | . | . | 0.0 | . | -6
O=C(OCc1nnc(-c2ccccc2)o1)c1cc(Cl)ccc1[N+](=O)[O-] | 2 | . | 1.7 | 1% | 1
Cc1ccccc1N(CC(=O)Nc1ccccc1C(=O)NCc1ccco1)S(=O)(=O)c1ccccc1 | -7 | -17 | 4.6 | -1% | -7
CC(NC(=S)NC1CCCCC1)c1ccc(C(C)(C)C)cc1 (centres undefined) | . | . | 0.8 | . | 3
O=C(CSc1nnc(-c2ccccc2F)n1C1CC1)NC(=O)c1cccc([N+](=O)[O-])c1 | 0 | -34 | 3.0 | -5% | -6
CCCCn1c(/N=C/c2ccccc2NS(=O)(=O)c2ccc(C)cc2)nc2ccccc21 | 8 | -15 | . | 0% | -14
CCOc1ccc(-n2ccnc2SCC(=O)Nc2cc(C)on2)cc1 | -3 | . | 2.0 | 0% | -3
CCn1c(=N)c(S(=O)(=O)c2ccc(Cl)cc2)cc2c(=O)n3ccccc3nc21 | -3 | . | -15 | -7% | -10
O=C1c2ccccc2C(=O)C1Cc1cccc2ccccc12 | 4 | -18 | 4.8 | -14% | -3
COc1ccc(Cn2c(C3CCCCC3)nc3c(c(=O)c4ccccc4n3C)c2=O)cc1 | . | . | 1.8 | 24% | -6
COc1ccc(NC(=O)CN(C)S(=O)(=O)c2ccccc2)cc1 | -3 | 5 | 1.6 | -2% | -6
COc1cc(-n2nc(C)c3c2OC(N)=C(C#N)C3c2ccccc2)c(Cl)c(Br)c1O (centres undefined) | 11 | 21 | 72* | 4% | 8
Cc1cccc(-n2nc([N+](=O)[O-])c(=NC3CCN(Cc4ccccc4)CC3)n2O)c1 | -15 | . | 7.9 | 0% | .
N#Cc1cc2c(nc1SCC(=O)Nc1cc(Cl)cc(Cl)c1)C1CCN2CC1 | -2 | 2 | . | 6% | -6
CC(C)Cn1c(-c2ccco2)csc1=Nc1cccnc1 | -2 | -108 | 8.8 | -4% | -4
CC1CC(C)CN(C(=O)CNS(=O)(=O)c2cccs2)C1 (centres undefined) | . | . | 0.7 | . | -3
CCn1cc(/C=N/NC(=O)c2ccc3c(c2)OCO3)cn1 | 2 | -25 | -1.0 | -4% | -8
COc1cccc(CNCCN2CCOCC2)c1OC | 4 | -17 | -4.1 | 9% | -9
CCCCN(CCCNc1ncnc2nc[nH]c12)c1ccccc1 | -11 | -12 | 3.8 | 5% | -4
CCN(CC)S(=O)(=O)c1ccc(S(=O)(=O)Nc2cc3c(cc2C(C)=O)OCO3)cc1 | 1 | -1 | -2.8 | -8% | 12
C=C1/C(=C\C=C2/CCC[C@]3(C)[C@@H]([C@H](C)/C=C/[C@@H](O)C4CC4)CC[C@@H]23)C[C@@H](O)C[C@@H]1O | . | . | 4.3 | 0% | 5

Among those listed so far, 9 contain a nitro group on carbon.
SMILES | Arbovirus inh | YopH inh | RecA splice inh | Mtb H37Rv | Mtb betalactam | others
Cc1cc(C)nc(SCc2cc(=O)c(OC(=O)c3cc([N+](=O)[O-])ccc3Cl)co2)n1 | -4 | -23 | -0.8 | -3% | 4
CCCC12CN(C(=O)c3ccc([N+](=O)[O-])cc3)CC(C)(CN(C(=O)c3ccc([N+](=O)[O-])cc3)C1)C2=O | . | . | -1.1 | 0% | -4
Cc1cc(C)n(C(=O)Cn2nc([N+](=O)[O-])c(Br)c2C)n1 | 9 | . | 2.1 | 1% | -11
CN(c1ccccc1)c1nc(N)c([N+](=O)[O-])c(N2CCCC2)n1 | . | . | 0.3 | . | ?
COc1ccccc1NC(=O)c1ccc(-n2ccnc2)c([N+](=O)[O-])c1 | . | . | -1.1 | . | -4
COC(=O)CNC(=O)c1ccccc1[N+](=O)[O-] | . | -20 | -1.4 | -8% | 1
O=C(OCc1nnc(-c2ccccc2)o1)c1cc(Cl)ccc1[N+](=O)[O-] | 2 | . | 1.7 | 1% | 1
O=C(CSc1nnc(-c2ccccc2F)n1C1CC1)NC(=O)c1cccc([N+](=O)[O-])c1 | 0 | -34 | 3.0 | -5% | -6
Cc1cccc(-n2nc([N+](=O)[O-])c(=NC3CCN(Cc4ccccc4)CC3)n2O)c1 | -15 | . | 7.9 | 0% | .
